FGF22 binding = FGF22 (human) thermal shift binding | Q9HCT0 | recombinant FGF22 thermal shift, SYPRO orange fluorescence; percent of sucrose octasulfate shift, DMSO zero | calls only at 9.99 µM | 340,000 tested, 1.5% active | AID 651658;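 active means melting point raised past a set limit in the mean and every replicate; inconclusive means no clear call; three in four hits are not shown here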
Target sequence (Q9HCT0 whole entry, looked up): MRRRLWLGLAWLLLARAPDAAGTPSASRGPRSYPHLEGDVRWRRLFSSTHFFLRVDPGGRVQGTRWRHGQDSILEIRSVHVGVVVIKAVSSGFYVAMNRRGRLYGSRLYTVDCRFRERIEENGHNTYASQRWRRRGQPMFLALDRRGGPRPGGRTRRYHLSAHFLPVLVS
MLL AF4-AF9 inh = MLL-AF4/AF9 protein interaction inhibition. P42568. AlphaScreen, biotin-AF4 peptide binding to FLAG-AF9. inhibition, % at 10 µM. 350,000 tested, 0.47% active. AID 651704;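 active means every replicate reaching a set inhibition limit, whatever the replicate mean, cut at about 25% in these data; inconclusive means mean inhibition reaches that limit but some replicates miss it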;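 further: 0% = plate neutral control median and 100% = total signal loss; the record names both 10 and 1 µM as test concentration; the first replicate is given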
Target sequence (P42568 whole entry, looked up): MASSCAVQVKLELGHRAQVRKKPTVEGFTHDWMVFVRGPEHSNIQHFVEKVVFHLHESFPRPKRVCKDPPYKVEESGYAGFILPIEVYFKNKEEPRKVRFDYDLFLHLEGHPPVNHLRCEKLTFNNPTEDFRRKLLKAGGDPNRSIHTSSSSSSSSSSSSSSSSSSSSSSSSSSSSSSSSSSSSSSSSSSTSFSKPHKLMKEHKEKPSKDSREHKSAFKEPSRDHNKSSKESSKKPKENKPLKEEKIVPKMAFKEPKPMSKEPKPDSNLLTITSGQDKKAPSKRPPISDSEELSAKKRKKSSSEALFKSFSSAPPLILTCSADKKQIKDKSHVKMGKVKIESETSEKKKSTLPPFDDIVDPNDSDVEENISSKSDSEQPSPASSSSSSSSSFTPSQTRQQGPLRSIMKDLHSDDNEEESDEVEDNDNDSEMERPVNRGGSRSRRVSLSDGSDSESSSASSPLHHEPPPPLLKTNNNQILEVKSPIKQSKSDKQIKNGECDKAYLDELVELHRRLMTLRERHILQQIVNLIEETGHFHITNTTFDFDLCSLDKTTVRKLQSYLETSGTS
Ecoli rRNA inh = inhibits bacterial ribosomal RNA function over humanized ribosomes; E. coli WT GFP vs humanized-ribosome RFP mutants, fluorescence, 24 h; active compounds read low; DMSO median 0, no signal -100; GFP signal change (wild-type ribosome), % (test concentration not listed); 350,000 tested, 1.6% active;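 active means significant combined selectivity score with lowered wild-type GFP, culture density cut under 30%, mutant RFP and density less affected; inactive means any of these conditions unmet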; further: one replicate is shown; some compounds called inactive have numbers as strong as hits
Ecoli rRNA inh OD600 = second read-out of Ecoli rRNA inh, no call of its own (marks repeat the call); OD600 change, %; measured here: OD600 growth;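 optical density of the mix in the first replicate; 0 = DMSO median and -100 = no signal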
Ecoli rRNA inh RFP = second read-out of Ecoli rRNA inh, no call of its own (marks repeat the call); RFP signal change, %; measured here: RFP humanized mutant strains;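 first replicate; 0 = DMSO median and -100 = no signal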
Numbers without * were called inactive; i = inactive; ? = inconclusive; nt = not tested or not shown; + = active, no number; & = joins results of further samples.

SMILES | FGF22 binding | MLL AF4-AF9 inh | Ecoli rRNA inh | Ecoli rRNA inh OD600 | Ecoli rRNA inh RFP
O=C(C[C@@H]1C=C[C@H](NC(=O)c2cnccn2)[C@@H](CO)O1)NCc1ccccc1F | i | -2.0 | 4 | 7 | -0.5
COc1ccccc1CNC(=O)C[C@H]1C[C@H]2c3cc(NC(=O)Cc4ccncc4)ccc3O[C@H]2[C@@H](CO)O1 | i | 2.9 | 4 | 14 | -2.4
Cc1ccc(S(=O)(=O)N(C)C[C@@H]2OCc3cn(nn3)CCCC(=O)N([C@H](C)CO)C[C@H]2C)cc1 | i | 1.5&-11&-0.9 | 0&23 | 5&13 | -2.3&5.2
COc1ccccc1-c1ccc([C@@H]2[C@@H](C#N)N(C(=O)C3CC3)[C@@H]2CO)cc1 | i | -1.3 | 1 | 1 | 0.7
Cc1cc(C(=O)Nc2cccc3c2O[C@@H](CN(C)C(=O)NC(C)C)[C@H](C)CN([C@H](C)CO)C3=O)n(C)n1 | i | -0.2 | 2 | -5 | -1.0
C[C@H](NC(=O)C[C@@H]1CC[C@@H](NC(=O)CN2CCOCC2)[C@H](CO)O1)c1ccccc1 | i | 1.1 | 2 | 6 | 1.1
O=C1c2ccccc2[C@@H]2C[C@@H](O)[C@H](Nc3cccc(Cl)n3)CCN12 | i | -1.6 | -7 | -2 | 1.7
C[C@@H]1CN([C@@H](C)CO)C(=O)Cc2cc(NC(=O)Nc3ccc4c(c3)OCO4)ccc2O[C@H]1CN(C)S(=O)(=O)c1ccccc1 | i | 4.9 | -4 | -5 | 2.0
CC(C)NC(=O)Nc1ccc2c(c1)CC(=O)N([C@@H](C)CO)C[C@H](C)[C@@H](CN(C)S(=O)(=O)c1ccc(Cl)cc1)O2 | i | -2.6 | 6 | -3 | 2.0
COc1ccccc1C1CC(=O)Oc2cc(C)cc(C)c21 (stereo not given) | i | -3.5 | 10 | 12 | 1.3
COc1ccccc1-c1cnc2c(c1)C(=O)N([C@H](C)CO)C[C@@H](C)[C@@H](CN(C)Cc1ccc(F)cc1)O2 | i | ? | -2 | -3 | 1.1
CN(C)CC(=O)N[C@@H]1CC[C@H](CCNC(=O)C2CCCC2)O[C@@H]1CO | i | -1.1 | 2 | 7 | -1.5
COC(=O)c1ccccc1CC1Cc2cc3c(cc2C1=O)CCC3 (stereo not given) | i | -0.2 | -20 | -45 | -0.4
COC(=O)[C@@]1(Cc2ccccc2)[C@H]2C(=O)N(C)C(=O)[C@H]2[C@H]2CN=C(SCC3CC3)N21 | i | -3.9 | 0 | -1 | 1.6
O=C(NCC[C@@H]1CC[C@@H](NS(=O)(=O)Cc2ccccc2)[C@@H](CO)O1)C1CCOCC1 | i | -0.6 | 3 | 5 | -1.6
CCC1(c2ccc(Cl)cc2)NC(=O)N(CC(=O)NC2CCCC(C)C2C)C1=O (stereo not given) | i | -0.7 | 3 | -10 | 6.3
CN(Cc1ccccc1)C(=O)C(=O)c1ccccc1 | i | -0.4 | 0 | 3 | 3.5
COc1ccc(-c2nc3c(C)cc(Br)cn3c2Cc2ccc(C)cc2)cc1OC | nt | 5.0 | -6.1* | -2.4* | -2.5*
O=C(c1ccc(-c2ccccc2)cc1)N1CCN(c2ccc3c(c2)C2CC3CCN2C(=O)OCc2ccccc2)CC1 (stereo not given) | i | 0.3 | 8 | 15 | 39
C[C@@H]1CN([C@H](C)CO)C(=O)c2cc(-c3cccnc3)cnc2O[C@@H]1CN(C)C(=O)C1CCOCC1 | i | -1.0 | 0 | 12 | -0.7
O=C(O)/C=C/C(=O)Nc1cccc2c1-c1ccccc1C2=O | i | 2.2 | -1 | 1 | 2.2
CCCNC(=O)N[C@H]1CC[C@H](CCn2cc(C3CC3)nn2)O[C@@H]1CO | i | 1.2 | 3 | 6 | -2.5
CO[C@@H]1CN(C)C(=O)c2ccc(NC(=O)c3ccc4c(c3)OCO4)cc2OC[C@@H](C)N(CC2CC2)C[C@H]1C | i | 0.6 | 2 | -1 | -1.0
C[C@H](CO)N1C[C@H](C)[C@H](CN(C)C(=O)Nc2ccccc2)Oc2ncc(-c3ccc(F)cc3)cc2C1=O | i | -3.3 | 3 | -6 | -0.7
C[C@@H]1CN([C@@H](C)CO)C(=O)c2cc(-c3ccccc3F)cnc2O[C@H]1CN(C)Cc1cccc(C(=O)O)c1 | i | -3.2 | 1 | 8 | -3.6
COC(=O)C[C@H]1C[C@@H]2c3cc(NC(=O)CN(C)C)ccc3O[C@@H]2[C@H](CO)O1 | i | -0.4&4.5 | 2&5 | 7&4 | 0.2&-0.6
CCCC#Cc1cnc2c(c1)C(=O)N([C@@H](C)CO)C[C@@H](C)[C@H](CN(C)C(=O)Nc1cc(F)ccc1F)O2 | i | 0.9 | 8 | 10 | 2.5
C[C@H]1CN([C@@H](C)CO)C(=O)c2cc(NC(=O)CCC(F)(F)F)ccc2O[C@@H]1CN(C)C | i | -2.3 | 0 | -3 | 0.4
Nc1ncnc2c1ncn2[C@@H]1O[C@H](CNC(=O)[C@@H](N)C2CCCCC2)[C@@H](O)[C@H]1O | i | -1.4 | 5 | 3 | -1.7
O=C(C[C@@H]1CC[C@@H]2[C@H](COC[C@H](O)CN2Cc2nccs2)O1)NCc1ccc(Oc2ccccc2)cc1 | i | -2.6 | -6 | -13 | 1.1

Compound profiles, as listed above. Screens in order: FGF22 binding | MLL AF4-AF9 inh | Ecoli rRNA inh | Ecoli rRNA inh OD600 | Ecoli rRNA inh RFP
CCCC#Cc1cnc2c(c1)C(=O)N([C@@H](C)CO)C[C@@H](C)[C@H](CN(C)C(=O)Nc1cc(F)ccc1F)O2 reads i | 0.9 | 8 | 10 | 2.5
C[C@@H]1CN([C@@H](C)CO)C(=O)c2cc(-c3ccccc3F)cnc2O[C@H]1CN(C)Cc1cccc(C(=O)O)c1 reads i | -3.2 | 1 | 8 | -3.6

The listing continues.
SMILES | FGF22 binding | MLL AF4-AF9 inh | Ecoli rRNA inh | Ecoli rRNA inh OD600 | Ecoli rRNA inh RFP
C[C@@H]1CN([C@@H](C)CO)C(=O)c2cc(NS(=O)(=O)c3cn(C)cn3)ccc2O[C@@H]1CN(C)Cc1ccc(Cl)c(Cl)c1 | i | 0.1 | 0 | -7 | -0.6
C[C@@H]1CCCCO[C@@H](CN(C)Cc2ccc(C(F)(F)F)cc2)[C@@H](C)CN([C@@H](C)CO)C(=O)c2cc(NC(=O)Nc3ccc4c(c3)OCO4)ccc2O1 | i | 2.9 | 4 | 4 | 2.1
CN(C)S(=O)(=O)c1cccc(NC(=O)COc2cccc3ccccc23)c1 | i | -8.3 | -17 | -14 | 2.0
CO[C@H]1CN(C)C(=O)c2cc(NC(=O)C3CCCCC3)ccc2OC[C@@H](C)N(Cc2nccs2)C[C@H]1C | i | 0.3 | -7 | -11 | 3.4
CO[C@@H]1CN(C)C(=O)c2ccc(NS(=O)(=O)c3cccc(F)c3)cc2OC[C@@H](C)NC[C@H]1C | i | -3.8 | 0 | -1 | -0.6
COc1ccc(NC(=O)N(C)C[C@H]2OCCCC[C@H](C)Oc3ccc(NS(=O)(=O)c4cccs4)cc3C(=O)N([C@H](C)CO)C[C@@H]2C)cc1 | i | -11 | -1 | -6 | 4.3
CS(=O)(=O)c1ccc(Cl)c(NC(=O)c2ccc(-n3cncn3)c([N+](=O)[O-])c2)c1 | i | -1.1 | -7 | -1 | -4.0
C[C@H](CO)N1C[C@H](C)[C@H](CN(C)CC2CC2)Oc2ncc(-c3ccc(F)cc3)cc2C1=O | i | 0.6 | 7 | 4 | 0.5
CC1(C(=O)NS(=O)(=O)Cc2cccc(Cl)c2)CCN1C(=O)c1cccc(F)c1 (stereo not given) | i | -2.8 | -2 | 3 | -0.7
Cn1cnc(CCNC(=O)C[C@@H]2CC[C@H]3[C@@H](COC[C@@H](O)CN3C(=O)C3CC3)O2)c1 | i | -0.7 | 3 | -3 | -4.7
CN1CCN(C(=O)C[C@@H]2CC[C@H]3[C@@H](COC[C@H](O)CN3S(=O)(=O)c3cccc(Cl)c3)O2)CC1 | i | -4.2 | 3 | 9 | -4.5
COc1nnc(-c2ccc(N3CCCCC3)c(NC(=O)COc3ccccc3)c2)c2ccccc12 | i | -7.0 | 1 | 5 | 3.3
NN=C1C(=O)c2cccc3cccc1c23 | i | -0.5 | -7 | -19 | 1.9
CC1=C(C(=O)N(C)C)CC(CC(=O)NCCc2ccccn2)C(=O)N1CCC1=CCCCC1 (stereo not given) | i | -4.3 | 3 | 6 | -3.2
C[C@@H]1CN([C@@H](C)CO)C(=O)Cc2cc(NS(=O)(=O)c3cn(C)cn3)ccc2O[C@@H]1CN(C)Cc1ccc(Oc2ccccc2)cc1 | i | 6.3 | 6 | -10 | 0.6

Looked up by compound from the entries so far (4):
SMILES | FGF22 binding | MLL AF4-AF9 inh | Ecoli rRNA inh | Ecoli rRNA inh OD600 | Ecoli rRNA inh RFP
O=C(O)/C=C/C(=O)Nc1cccc2c1-c1ccccc1C2=O | i | 2.2 | -1 | 1 | 2.2
CO[C@@H]1CN(C)C(=O)c2ccc(NC(=O)c3ccc4c(c3)OCO4)cc2OC[C@@H](C)N(CC2CC2)C[C@H]1C | i | 0.6 | 2 | -1 | -1.0
C[C@@H]1CCCCO[C@@H](CN(C)Cc2ccc(C(F)(F)F)cc2)[C@@H](C)CN([C@@H](C)CO)C(=O)c2cc(NC(=O)Nc3ccc4c(c3)OCO4)ccc2O1 | i | 2.9 | 4 | 4 | 2.1
COC(=O)c1ccccc1CC1Cc2cc3c(cc2C1=O)CCC3 (stereo not given) | i | -0.2 | -20 | -45 | -0.4

New compounds follow
SMILES | FGF22 binding | MLL AF4-AF9 inh | Ecoli rRNA inh | Ecoli rRNA inh OD600 | Ecoli rRNA inh RFP
C[C@@H]1CCCCO[C@H](CN(C)C(=O)Nc2ccc3c(c2)OCO3)[C@H](C)CN([C@@H](C)CO)C(=O)c2cc(NC(=O)Nc3ccc(F)cc3)ccc2O1 | i | 4.3 | 0 | -4 | -1.2
O=S(c1cc(Cl)cc(Cl)c1O)c1cc(Cl)cc(Cl)c1O | i | -0.8 | -26 | -79 | -22
CO[C@H]1CN(C)C(=O)c2cc(NC(=O)C3CC3)ccc2OC[C@H](C)N(Cc2cc(F)ccc2F)C[C@H]1C | i | 0.9 | -12 | -41 | -7.7
Cc1cccc(S(=O)(=O)N[C@@H]2CC[C@H](CCNC(=O)c3cnccn3)O[C@@H]2CO)c1 | i | -1.0 | 1 | 1 | -3.1
CN1CCN(C(=O)C[C@H]2C[C@@H]3c4cc(NC(=O)c5ccc6c(c5)OCO6)ccc4O[C@@H]3[C@@H](CO)O2)CC1 | i | -3.2 | 5 | 5 | 2.8
C[C@@H]1CCCCO[C@H](CN(C)C(=O)CCCN(C)C)[C@H](C)CN([C@@H](C)CO)C(=O)c2cc(NS(=O)(=O)c3cn(C)cn3)ccc2O1 | i | -1.0 | -2 | 6 | 0.6
C[C@H]1CN([C@@H](C)CO)C(=O)c2cc(NC(=O)Cn3cnnn3)ccc2O[C@H]1CN(C)S(=O)(=O)c1ccccc1 | i | 0.4 | 5 | 5 | 0.5
Cc1ccc2nc(-c3ccc(Cl)cc3)c(CC3CCCCC3)n2c1 | i | -2.7 | -3 | -3 | 1.2
CC(=O)N1[C@@H](CO)[C@@H](c2ccccc2)[C@@H]1CN(C)S(=O)(=O)c1ccccc1 | i | -2.5 | -5 | -5 | 2.0
CCc1nc2ccc(C(=O)NCCNC(C)=O)cn2c1N(CC)CCOC | i | 46* | 3 | 7 | -1.9
C[C@@H]1CN([C@@H](C)CO)C(=O)c2cc(N(C)C)ccc2O[C@@H](C)CCCCO[C@H]1CN(C)C(=O)C1CCCCC1 | i | 0.4 | -3 | -6 | -2.8
CC1NC(=O)c2cccnc2-n2c1nc1cc(F)c(F)cc1c2=O (stereo not given) | i | 1.1 | 4 | 9 | -1.3
OC(c1ccc(Cl)c(Cl)c1)c1ncc(-c2ccccc2F)[nH]1 (stereo not given) | i | 0.8 | -62 | -79 | -17
CCN1C(=O)[C@H]2[C@@H](c3ccc(OC)cc3)N[C@]3(CCCN(CC4CCCCC4)C3=O)[C@H]2C1=O | i | 0.3 | -5 | -3 | -3.8
C[C@@H]1CN([C@H](C)CO)C(=O)Cc2cc(NC(=O)c3ccncc3)ccc2O[C@@H]1CN(C)Cc1ccncc1 | i | -3.4 | -2 | -1 | -2.4
C[C@@H]1CN([C@@H](C)CO)C(=O)Cc2cc(NC(=O)CCN3CCOCC3)ccc2O[C@H]1CN(C)Cc1ccc(C(F)(F)F)cc1 | i | 0.9 | -4 | -21 | 5.8
CCC(=O)N(C)C[C@@H]1Oc2ncc(C#Cc3ccncc3)cc2C(=O)N([C@@H](C)CO)C[C@H]1C | i | -7.5 | 3 | 7 | -0.7
CC(C)OC(=O)N(C)C[C@@H]1OCc2ccccc2-c2c(n(C)c3ccccc23)C(=O)N([C@H](C)CO)C[C@H]1C | i | -2.8 | -2 | -3 | -0.2
CC(=O)N(CC(C)C)C[C@H]1[C@@H](c2ccc(C3=CCCC3)cc2)[C@@H](CO)N1C(C)=O | i | -1.0 | 1 | -2 | -3.1
C[C@H]1CN([C@@H](C)CO)C(=O)c2c(c3ccccc3n2C)-c2ccccc2CO[C@H]1CN(C)Cc1ccc(Oc2ccccc2)cc1 | + | -0.8 | 1 | -2 | 1.3

Screening data deposited in PubChem by Broad Institute.

A portion of the library. The share of hits here may be higher or lower than overall.
